Assay outcomes deposited in PubChem BioAssay by several laboratories.
PABP polyA inh – PABP-poly(A) binding inhibition; P11940; PABP-poly(A) RNA binding, fluorescence polarization; inhibition, % at 35 µM; 290,000 tested, 1% active;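 active means 50% or more with normal probe brightness, or confirmed in later tests; about a fifth of its hits are not listed in these tables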;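 further: calls also rest on retests at 20 µM and on dose response follow-up; controls were probe without protein and protein plus probe with vehicle; some compounds called inactive have numbers as strong as hits; many hits fall short of the cut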
Target sequence (P11940 whole entry, looked up): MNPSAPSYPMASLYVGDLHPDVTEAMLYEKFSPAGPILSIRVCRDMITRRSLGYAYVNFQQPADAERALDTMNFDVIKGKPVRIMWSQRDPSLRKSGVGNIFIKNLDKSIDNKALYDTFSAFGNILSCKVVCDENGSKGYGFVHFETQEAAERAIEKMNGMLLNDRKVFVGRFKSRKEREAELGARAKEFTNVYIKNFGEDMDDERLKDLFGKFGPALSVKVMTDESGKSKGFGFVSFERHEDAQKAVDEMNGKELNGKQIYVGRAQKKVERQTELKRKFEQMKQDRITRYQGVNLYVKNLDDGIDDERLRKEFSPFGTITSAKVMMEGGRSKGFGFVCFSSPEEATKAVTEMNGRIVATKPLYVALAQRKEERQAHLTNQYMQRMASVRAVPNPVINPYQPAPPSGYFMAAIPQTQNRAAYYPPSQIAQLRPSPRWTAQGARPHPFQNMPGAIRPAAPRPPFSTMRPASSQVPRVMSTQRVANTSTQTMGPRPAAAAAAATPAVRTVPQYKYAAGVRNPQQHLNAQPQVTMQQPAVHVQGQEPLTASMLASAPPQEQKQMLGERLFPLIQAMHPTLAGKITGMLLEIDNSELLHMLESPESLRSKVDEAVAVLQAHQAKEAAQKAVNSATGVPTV
MT1-MMP act inh – blocks activation of human MT1-MMP | P50281 | HT1080 RFP-PRO-GFP cells, GFP/RFP ratio fluorescence, overnight; percent of plate control window, DMSO zero | GFP/RFP ratio change, % at 20 µM | 360,000 tested, 0.061% active;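 active means GFP/RFP ratio change of at least 30% with cell ATP level not reduced by more than half and red fluorescence within 50% of control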; further: strong numbers were not always called active
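Material: RFP-PRO-GFP reporter HT1080 cells. Dosing: single-point 20 µM compound, 1% DMSO. Controls: DMSO and RFP-L50D-GFP cell wells. Timing: cells overnight before dosing, compound overnight, 37 °C, 5% CO2. Measure: GFP/RFP fluorescence ratio.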
Rce1 inh – blocks yeast Ras-converting enzyme; Q03530; yeast membranes, quenched prenylated peptide cleavage fluorescence; calls only; 290,000 tested, 0.27% active;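 active means fall in fluorescence gain of 50% or more versus controls, with final raw signal at or below 3038400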;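 further: plate controls were neutral control wells for no effect and wells lacking membranes for full effect; tested at 10 µM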
Target sequence (Q03530 whole entry, looked up): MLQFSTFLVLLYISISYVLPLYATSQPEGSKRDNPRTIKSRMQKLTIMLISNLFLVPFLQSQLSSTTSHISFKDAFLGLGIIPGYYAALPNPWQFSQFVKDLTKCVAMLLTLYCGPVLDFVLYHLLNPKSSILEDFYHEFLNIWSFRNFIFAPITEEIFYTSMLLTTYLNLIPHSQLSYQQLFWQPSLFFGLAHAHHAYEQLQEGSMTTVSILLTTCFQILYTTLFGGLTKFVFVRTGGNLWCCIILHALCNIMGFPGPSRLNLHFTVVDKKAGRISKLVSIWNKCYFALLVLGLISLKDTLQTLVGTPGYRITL
CSC inhib – blocks cancer stem cells; cancer stem cell-like cells viability, luminescence; inhibition, % at 7.5 µM; 300,000 tested, 1.1% active; AID 2717;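 active means mean at 75% or more and at least half the replicates too; tested in HMLE shEcad cells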;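 further: 0% = median of negative and 100% = median of positive control wells; the first replicate is given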
eIF4H inh – inhibitors of RNA binding by human eIF4H. AID 2012. eIF4H fluorescence polarization binding assay. inhibition, % at 35 µM. 290,000 tested, 0.94% active. Q15056;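 active means 50% or more with normal probe brightness, or confirmed in later tests; about a fifth of its hits are not listed in these tables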;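 further: calls also rest on retests at 20 µM and on dose response follow-up; 0% = protein and probe with vehicle and 100% = probe without protein; strong numbers were not always called active; many hits fall short of the cut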
Env fusion inh – blocks HIV Env-driven cell-cell fusion; HeLa-JRFL Env/CEM21 cell fusion, luciferase; inhibition, % at 12.3 µM; 360,000 tested, 1.1% active; AID 651610;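 active means mean replicate inhibition score of at least 50 and every replicate individually at or above 50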;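 further: 0% = plate neutral controls and 100% = maraviroc near 300 nM; one replicate is shown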
Yeast UUG start – yeast start codon fidelity modulation. S. cerevisiae UUG-firefly luciferase reporter, luminescence/redox ratio. activity score, % at 18.7 µM. 350,000 tested, 0.13% active. AID 602363;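 active means replicate mean at a twofold rise or more, about +100% in these data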;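 further: firefly luciferase made from a UUG start codon reports start codon fidelity; reporter light over untreated wells divided by growth signal over untreated wells; some hits fall short of that in this replicate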
eIF4H inh retest – second read-out of eIF4H inh, no call of its own (marks repeat the call); inhibition, %; compound at 20 µM; confirmation average;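 mean of two retest wells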
PABP polyA inh retest – further read-out of PABP polyA inh, marked with its call; inhibition, %; compound at 20 µM; confirmation repeats;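 mean of two retest wells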
MT1-MMP act inh RFP – recorded beside MT1-MMP act inh, whose call it bears; RFP signal change, %; measured here: RFP expression control read;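 0 = vehicle wells; hits needed this value within 50% of zero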
Active calls of the source: *; i = inactive; . = no result given. These rows are one share of the data, so the mix of outcomes need not match the whole.

SMILES | PABP polyA inh | MT1-MMP act inh | MT1-MMP act inh RFP | Rce1 inh | CSC inhib | eIF4H inh | Env fusion inh | Yeast UUG start | others
COc1ccc(CCNC(=O)C2CCN(S(C)(=O)=O)CC2)cc1OC | 1 | -1 | 0 | i | -11 | -8 | . | -10
COc1ccc2c(c1)[nH]c1c(=O)n(CCc3cnc[nH]3)cnc12 | 7 | 12 | 11 | i | 13 | 0 | -25 | -18
N#CC(=C1CCCC1)c1nc(-c2ccc(Cl)cc2)cs1 | 6 | 0 | 2 | i | . | 10 | . | -29
CC(=O)NC12CC3CC(C1)CC(C(=O)N(C)CC(=O)Nc1ccc(F)c(F)c1F)(C3)C2 | . | -2 | 2 | . | . | . | -7 | -27
COc1ccc(NS(=O)(=O)c2cc(NC(=O)c3ccc(=O)[nH]c3)ccc2N2CCOCC2)cc1 | -1 | 1 | 3 | i | . | -6 | 6 | -2
O=C(CSc1nnc(C2CC2)n1-c1ccccc1)NCCc1ccccc1 | -5 | 1 | 2 | i | -16 | 7 | . | 3
CC(=O)c1ccc(OCCCN2CCCCC2)cc1 | 7 | 5 | 9 | i | 2 | 3 | -6 | 5
O=C(COc1ccc2c(-c3ccccc3)cc(=O)oc2c1)NCC1CCC(C(=O)O)CC1 (centres undefined) | 7 | 4 | 2 | i | -6 | 4 | . | -3
CC(=O)c1cc(NC(=O)c2ccc(C)cc2)c(=O)oc1C | -2 | -2 | 3 | i | 1 | -11 | -294 | .
Cc1ccccc1N1CC(C(=O)N2CCCCCC2)CC1=O (centres undefined) | . | 0 | 2 | i | -13 | . | -5 | -10
CCOc1ccc(CN2C(=O)c3ccccc3Sc3ccc(C(=O)NCCCN4CCOCC4)cc32)cc1 | 10 | -1 | 0 | i | 0 | 1 | -9 | -2
CCCNc1nc(Nc2ccc(C)c(Cl)c2)c2cnn(C)c2n1 | -1 | -20 | -18 | i | 24 | 2 | 18 | -3
COC(=O)/C=C1\NC(=O)C(C)S1 (centres undefined) | -12 | -8 | 0 | i | -4 | -11 | 2 | -6
Cn1cncc1COC(=O)c1ccc(Cl)cc1 | -5 | 7 | 2 | i | 2 | 0 | 12 | 5
CC(=O)N/C(=C\c1ccccc1)C(=O)OCC(=O)N1CCCCCC1 | -4 | 0 | 2 | i | 1 | 0 | -9 | -6
O=C(CN1C(=O)c2cccc3cccc1c23)NCC1CCCO1 (centres undefined) | -4 | 1 | 2 | i | -2 | 0 | . | -16
O=S(=O)(/N=C(/Nc1cccc2ccccc12)c1ccccc1)c1ccccc1 | -5 | 1 | 4 | i | -10 | -6 | 7 | 12
Nc1nc(-c2ccc(C(=O)O)cc2)cs1 | 4 | -1 | 2 | i | -4 | -3 | 16 | .
Cc1ccc(NC(=O)c2sc3nc4c(c(-c5ccco5)c3c2N)CCC4)cc1 | 53* | -35 | -6 | i | 17 | 82* | -68 | -23 | eIF4H inh retest=100*;PABP polyA inh retest=88*
O=C(O)CC1CCC(=C(Cl)Cl)C1 (centres undefined) | 10 | 6 | 3 | . | 11 | -3 | . | -20
COc1ccc(CN(C)C(=O)c2cccc(S(=O)(=O)N3CCc4ccccc43)c2)c(OC)c1 | . | 1 | -12 | . | . | . | 14 | -6
Cc1cc2cc(C)c(NCCNC(=O)c3ccccc3)nc2cc1C | -9 | 0 | 0 | i | 26 | -6 | -14 | 4
O=C(N/N=C\c1ccc(CN(Cc2ccc(Cl)cc2)S(=O)(=O)c2ccccc2)o1)C(=O)Nc1ccc(F)cc1 | 4 | 3 | -2 | i | -6 | 2 | . | -8
O=C(Nc1ccccc1Cl)c1cc(C2CCCCN2C(=O)CCCc2ccccc2)on1 (centres undefined) | . | -4 | 2 | . | . | . | 16 | -37
COc1cccc(N2CC(C(=O)NCc3n[nH]c(=O)c4ccccc34)CC2=O)c1 (centres undefined) | . | 2 | 2 | i | . | . | -12 | .
Cc1nc2oc3ccc(F)cc3c(=O)c2cc1C(=O)O | 8 | -11 | -1 | i | 0 | -2 | 1 | -10
COc1ccc(Nc2ccc3ccccc3c2)cc1 | . | 3 | 5 | . | . | . | -50 | -14
COc1ccc(CCNC(=O)Nc2nnc([C@H]3C[C@H](O)[C@@H](CO)O3)s2)cc1OC | . | -3 | 0 | . | . | . | -17 | 0
COCCCN1C(=O)C(CC(=O)NC(c2ccccc2)c2ccccc2)CC(C(=O)N2CCOCC2)=C1C (centres undefined) | . | -3 | 1 | . | . | . | 9 | -16
CCCCOc1ccc(Cc2c(O)nc(SC)[nH]c2=O)cc1 | -6 | 3 | 5 | i | 11 | -18 | 10 | -19
CCOC(=O)NC(=O)CSc1nc(-c2ccc(C)c(C)c2)cn1-c1ccccc1 | -8 | -6 | -7 | i | -8 | 5 | . | .
CC1(C)CC(=O)N(CC(=O)NCc2ccccc2)c2ccccc2S1(=O)=O | 7 | 2 | 2 | i | 7 | -10 | 12 | -15
COC(=O)C(Cc1ccccc1)NS(=O)(=O)c1ccccc1Br (centres undefined) | 3 | 0 | 0 | i | 0 | 3 | -11 | -9
C=CCSc1nc(Cc2ccc(Cl)cc2)nc2ccccc12 | 0 | -8 | 0 | i | 52 | 2 | -7 | -18
Cc1cccc(CCNC(=O)C2CCC(=O)N(Cc3ccc(Cl)cc3)C2)n1 (centres undefined) | -1 | -3 | 0 | i | -11 | -7 | -2 | -10
O=C(Nc1cc(Cl)ccc1N1CCCC1)C1=COCCO1 | . | -11 | 3 | . | -9 | . | 1 | -3
Cc1ccccc1Nc1nc(Cl)c(C=O)s1 | 31* | -12 | -3 | i | 13 | 78* | -13 | -16 | eIF4H inh retest=60*;PABP polyA inh retest=62*
Cc1ccc(C(=O)COC(=O)CCCC(=O)NC2CCCCC2)cc1[N+](=O)[O-] | -7 | 6 | 7 | i | -13 | -9 | -11 | 2
COc1ccc(-n2c(Cc3cc(=O)[nH]c(=O)[nH]3)nnc2SCc2ccccc2)cc1 | 10 | -6 | 7 | i | -5 | 1 | . | -21
COc1ccc(CNC(=O)CC(C)CC2=NS(=O)(=O)c3ccccc3N2)cc1 (centres undefined) | 0 | -2 | -3 | i | -6 | -13 | -49 | -4
COc1ccc(CNC(=O)CSCc2cnn(-c3ccccc3)c2-n2cccc2)cc1 | -3 | -2 | -5 | i | 4 | 7 | -35 | 14
CC(C)(C)C(=O)O/N=C1/C(=O)N(c2ccccc2)c2ccccc21 | -9 | -2 | -4 | i | -8 | -1 | . | .
Cc1c(O)ccc2c(CC(=O)N[C@@H](Cc3ccc(O)cc3)C(=O)O)cc(=O)oc12 | 7 | 4 | 6 | i | 12 | -10 | 9 | -12
COc1cc(NC(=O)c2cccs2)c(OC)cc1NC(=O)Cc1ccccc1 | 11 | 13 | 0 | i | -8 | -6 | 8 | -11
O=C1/C(=C/c2ccc([N+](=O)[O-])cc2)C=C(c2ccccc2)N1c1ccccc1 | 14 | -6 | -3 | i | 35 | 45 | . | -5

Brought forward from above: five entries, then new ones.
SMILES | PABP polyA inh | MT1-MMP act inh | MT1-MMP act inh RFP | Rce1 inh | CSC inhib | eIF4H inh | Env fusion inh | Yeast UUG start | others
COc1ccc(CNC(=O)CSCc2cnn(-c3ccccc3)c2-n2cccc2)cc1 | -3 | -2 | -5 | i | 4 | 7 | -35 | 14
CC(C)(C)C(=O)O/N=C1/C(=O)N(c2ccccc2)c2ccccc21 | -9 | -2 | -4 | i | -8 | -1 | . | .
Cc1c(O)ccc2c(CC(=O)N[C@@H](Cc3ccc(O)cc3)C(=O)O)cc(=O)oc12 | 7 | 4 | 6 | i | 12 | -10 | 9 | -12
COc1cc(NC(=O)c2cccs2)c(OC)cc1NC(=O)Cc1ccccc1 | 11 | 13 | 0 | i | -8 | -6 | 8 | -11
O=C1/C(=C/c2ccc([N+](=O)[O-])cc2)C=C(c2ccccc2)N1c1ccccc1 | 14 | -6 | -3 | i | 35 | 45 | . | -5
CC1(C)c2[nH]c3ccccc3c2C[C@H]2C(=O)N(CCCO)CC(=O)N21 | -4 | 2 | 4 | i | -6 | 3 | 30 | -16
O=C(Cn1cnc2cc([N+](=O)[O-])ccc2c1=O)NCc1ccccc1 | -9 | 4 | 2 | i | -10 | 9 | -9 | -16
O=C(CCNC(=O)c1ccc(Br)cc1)NCc1ccco1 | . | -4 | -1 | . | 0 | . | -4 | -7
Cc1nc([N+](=O)[O-])cn1-c1ccc(N)cc1 | -8 | 8 | 10 | i | 11 | -10 | 16 | -3
Cc1ccc(Cn2c(=N)c(C(=O)NCC3CCCO3)cc3c(=O)n4ccccc4nc32)cc1 (centres undefined) | 4 | 4 | 3 | i | -15 | 3 | 3 | -4
Cc1ccc(Cl)cc1NC(=O)CN1C(=O)COc2ccc(S(=O)(=O)N3CCOCC3)cc21 | . | 9 | 1 | i | -18 | . | 7 | .
CC(C)(C)c1ccc(/C=N/N2C(=O)CSC2=S)cc1 | 6 | 0 | 13 | i | -14 | -3 | 20 | -9
Cc1ccc(C)n1NC(=O)c1ccccc1Cl | 1 | -3 | 5 | i | 12 | -1 | . | -9
COc1ccc(Cc2c(C3CCCCC3)nc3c4ccccc4ccn23)c(C)c1 | . | 0 | 7 | . | . | . | 5 | -13
COc1ccc(NC(=O)CCn2ccnc2)c(OC)c1 | -1 | 3 | 1 | i | -14 | -7 | -2 | -16
O=C(NNCC(O)COc1ccccc1)c1ccccc1 (centres undefined) | -5 | 3 | -2 | i | 1 | -4 | -4 | -3
CCCCn1c(=O)c(C(=O)OCC)c(O)c2ccccc21 | -4 | -6 | -1 | i | 2 | -4 | -71 | -3
CN(C)CCCNC(=O)N1c2ccccc2Sc2ccccc21 | -3 | -4 | 1 | . | -25 | -5 | -31 | -9
COc1cc2c(cc1OC)CN(CC(=O)Nc1ccc(C#N)cc1)CC2 | -17 | -1 | 2 | i | -1 | -10 | -86 | .
CC(C)c1nn2c(=O)cc(CSc3ccccc3NC(=O)c3ccccc3F)nc2s1 | -9 | 1 | 2 | i | -3 | 2 | 4 | 26
Cc1ccc2nsnc2c1NC(=O)c1ccccc1[N+](=O)[O-] | -4 | -3 | 6 | i | -10 | 9 | 22 | .
CCc1nnc(NC(=O)CN2CCN(CC)CC2)s1 | -8 | -2 | -2 | i | -1 | 1 | 9 | -6
CC[C@@H](C)[C@H](NC(=O)CCc1c(C)c2cc3c4c(oc3c(C)c2oc1=O)CCCC4)C(=O)O | 26 | 2 | -3 | i | -5 | 8 | 18 | -5
O=C(NC1CCCCC1)NC1CC2CCCC(C1)N2C1CCCC1 (centres undefined) | 1 | 8 | 5 | i | . | -1 | -28 | -2
COC(=O)c1cn(C(=O)OC)c2ccccc12 | -4 | 2 | 4 | i | 4 | -2 | -22 | -21
Cc1nn(C(=O)c2cccnc2)c(C)c1C | 0 | 2 | 7 | i | 4 | -6 | -37 | -10
Cc1nnc(NC(=O)Nc2cccc(Cl)c2)s1 | 7 | -7 | -11 | i | 13 | -10 | . | -6
CN(C)CCOc1ccccc1C(C)(C)C | 30 | -1 | 0 | i | -9 | 0 | -47 | -9
COc1ccc(CNC(=O)c2csc(Cc3ccc(OC)cc3)n2)cc1 | -6 | -4 | -3 | i | 0 | -7 | . | -14
COC(=O)c1sc(NC(=O)c2ccoc2C)nc1C | 1 | -2 | 5 | i | . | 3 | -112 | -11
C=CCOC(=O)C1=C(C)Nc2ncnn2C1c1cccs1 (centres undefined) | 5 | -1 | -1 | i | -1 | 0 | -111 | -22
C=CCn1c(SCC(=O)Nc2ccc3c(c2)OCCO3)nc2cc(C(=O)O)ccc2c1=O | . | 8 | 2 | . | -19 | . | . | -3
